Screening results (PubChem)
CSC inhib – cancer stem cell viability inhibitors, primary screen, luminescence | cancer stem cell-like cells viability | inhibition, % at 7.5 µM | 1.1% of 300,000 active | AID 2717, 2010;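 active = mean at 75% or more and at least half the replicates too; inconclusive = mean and replicates disagree; tested in HMLE shEcad cells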;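 also: 0% = median of negative and 100% = median of positive control wells; the first replicate is given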
eIF4H inh – human eIF4H binding inhibitors, primary screen, translation initiation inhibitor project, biochemical, uHTS, fluorescence polarization. eIF4H fluorescence polarization binding assay. AID 2012, 2009. inhibition, % at 35 µM. 0.94% of 290,000 active. Eukaryotic translation initiation factor 4H (Homo sapiens), Q15056;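 active = 50% or more with normal probe brightness, or confirmed in later tests; inconclusive = above 50% with abnormal brightness, or retests that disagree; inactive = below 50% or failed in later tests; about a fifth of its hits are not listed in these tables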;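 also: calls also rest on retests at 20 µM and on dose response follow-up; 0% = protein and probe with vehicle and 100% = probe without protein; strong numbers were not always called active; many hits fall short of the cut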
Yeast UUG start – modulators of yeast start codon fidelity, primary screen, whole organism, S. cerevisiae, single point, plate reader. S. cerevisiae UUG-firefly luciferase reporter, luminescence/redox ratio. activity score, % at 18.7 µM. 0.13% of 350,000 active. AID 602363, 2012;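 active = replicate mean at a twofold rise or more, about +100% in these data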;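 also: firefly luciferase made from a UUG start codon reports start codon fidelity; reporter light over untreated wells divided by growth signal over untreated wells; some hits fall short of that in this replicate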
MT1-MMP act inh – blockers of MT1-MMP proenzyme processing, primary screen, HT1080 RFP-PRO-GFP cells, GFP/RFP fluorescence. GFP/RFP ratio change, % at 20 µM. GFP/RFP ratio fluorescence, overnight; percent of plate control window, DMSO zero. 0.061% of 360,000 active;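 active = GFP/RFP ratio change of at least 30% with cell ATP level not reduced by more than half and red fluorescence within 50% of control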; also: strong numbers were not always called active
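Assay system: HT1080 RFP-PRO-GFP cells | Dosing: 20 µM single dose, 1% DMSO | Incubation: Cells overnight before dosing, compound overnight, 37 °C, 5% CO2 | Evaluation: GFP/RFP fluorescence ratio | Control set: DMSO-only wells and HT1080 RFP-L50D-GFP cell wells as references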
HIV Env fusion – inhibitors of HIV-1 Env-driven cell-cell fusion, primary screen, HeLa-JRFL effector, CEM21 target cells, luciferase | inhibition, % at 12.3 µM | 1.1% of 360,000 active;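 active = mean replicate inhibition score of at least 50 and every replicate individually at or above 50; inconclusive = only one of the two criteria met; inactive = mean below 50 and not all replicates reaching 50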;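 also: 0% = plate neutral controls and 100% = maraviroc near 300 nM; one replicate is shown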
Rce1 inh – yeast Rce1p protease inhibitors, primary screen, biochemical, fluorescence, cell-free homogeneous | CAAX prenyl protease 2 (Saccharomyces cerevisiae (strain ATCC 204508 / S288c)), Q03530 | yeast membranes, quenched prenylated peptide cleavage fluorescence | calls only | 0.27% of 290,000 active | AID 2563, 2010;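 active = fall in fluorescence gain of 50% or more versus controls, with final raw signal at or below 3038400; inconclusive = same 50% fall but final raw signal above 3038400; inactive = fall in fluorescence gain under 50%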;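 also: plate controls were neutral control wells for no effect and wells lacking membranes for full effect; tested at 10 µM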
PABP polyA inh – PABP poly(A) RNA binding inhibitors, primary screen, biochemical, fluorescence polarization, uHTS. Polyadenylate-binding protein 1 (Homo sapiens), P11940. inhibition, % at 35 µM. 1% of 290,000 active. AID 2014, 2009;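 active = 50% or more with normal probe brightness, or confirmed in later tests; inconclusive = above 50% with abnormal brightness, or retests that disagree; inactive = below 50% or failed in later tests; about a fifth of its hits are not listed in these tables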;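 also: calls also rest on retests at 20 µM and on dose response follow-up; controls were probe without protein and protein plus probe with vehicle; some compounds called inactive have numbers as strong as hits; many hits fall short of the cut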
Target sequence (P11940 whole entry, looked up): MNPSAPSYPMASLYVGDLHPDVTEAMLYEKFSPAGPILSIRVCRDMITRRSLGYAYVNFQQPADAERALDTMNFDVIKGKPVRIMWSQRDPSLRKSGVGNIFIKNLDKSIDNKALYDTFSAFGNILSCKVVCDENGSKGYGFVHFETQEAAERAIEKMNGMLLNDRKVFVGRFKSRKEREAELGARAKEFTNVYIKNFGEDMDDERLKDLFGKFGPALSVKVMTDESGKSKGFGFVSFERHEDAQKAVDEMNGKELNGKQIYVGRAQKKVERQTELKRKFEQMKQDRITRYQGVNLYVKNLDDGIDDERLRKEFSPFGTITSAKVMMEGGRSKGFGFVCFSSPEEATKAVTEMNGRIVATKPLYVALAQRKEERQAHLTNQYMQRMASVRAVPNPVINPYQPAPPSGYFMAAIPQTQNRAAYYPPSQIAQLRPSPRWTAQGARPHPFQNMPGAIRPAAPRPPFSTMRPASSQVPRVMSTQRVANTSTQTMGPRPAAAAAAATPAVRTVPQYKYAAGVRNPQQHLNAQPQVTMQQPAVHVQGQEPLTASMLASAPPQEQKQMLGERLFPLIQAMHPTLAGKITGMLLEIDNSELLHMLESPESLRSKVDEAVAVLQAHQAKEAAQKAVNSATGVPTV
eIF4H inh retest – also measured in eIF4H inh; calls as there; inhibition, %; compound at 20 µM; confirmation average;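 mean of two retest wells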
PABP polyA inh retest – further read-out of PABP polyA inh, marked with its call; inhibition, %; compound at 20 µM; confirmation repeats;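 mean of two retest wells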
MT1-MMP act inh RFP – second read-out of MT1-MMP act inh, no call of its own (marks repeat the call); RFP signal change, %; measured here: RFP expression control read;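 0 = vehicle wells; hits needed this value within 50% of zero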
Active calls of the source: *; i = inactive; ? = inconclusive; . = not tested or not shown; & = joins results of further samples; [ ] = dose if it differs, or a comment.

SMILES	CSC inhib	eIF4H inh	Yeast UUG start	MT1-MMP act inh	MT1-MMP act inh RFP	HIV Env fusion	Rce1 inh	PABP polyA inh	others
Cc1ccc(S(=O)(=O)N(C)C[C@@H]2Oc3ccc(NS(C)(=O)=O)cc3CC(=O)N([C@H](C)CO)C[C@@H]2C)cc1	-15.5	.	2.7	2.9	1.8	39.9	.	.
O=C(COc1ccccc1)NN1C(=O)CSC1=S	-4.9	0.4	.	7.9	16.3	31.8	i	1.7
CCOC(=O)c1c(C)c(C(=O)N2CCN(c3cccc(Cl)c3)CC2)c(C)n1C	-2.7	-8.6	-12.1	0.7	2.0	57.3*	i	-2.9
Cn1cc(C=O)c2cc(S(=O)(=O)N3CCOCC3)ccc21	11.9	-0.3	.	1.7	2.2	17.3	i	7.8
COc1ccc(Nc2nnc(-c3ccc(N4CCOCC4)c([N+](=O)[O-])c3)c3ccccc23)cc1	.	-3.6	.	10.7	-8.0	27.4	.	-0.1
Cc1ccc(C(=O)Nc2cccc(C(=O)NCc3ccccc3)c2)o1	-2.0	-3.8	7.2	1.1	0.7	4.0	i	5.1
COc1ccc(C(=O)Nc2ccc3nc4n(c(=O)c3c2)CCCCC4)cc1OC	.	.	-2.4	6.5	1.0	26.2	.	.
O=C(Nc1ccc(Cl)cc1)Nn1cnnc1	.	-6.9	-21.9	1.5	-0.4	-0.2	i	2.7
COC(=O)c1c(NC(C)=O)sc(C(=O)Nc2ccccc2OC)c1C	9.6	-1.8	.	-2.6	-2.5	5.5	i	2.3
CCn1cc(CNC(=O)C2CCC(=O)N(CCc3cccc(F)c3)C2)cn1 (stereo unspecified)	.	4.0	-11.0	2.6	1.7	6.2	i	3.7
O=C(COC(=O)c1ccccc1C(=O)c1ccc(Cl)cc1)NCc1ccccc1	-15.4	-9.2	-11.7	-4.3	2.4	27.4	i	6.4
CC(=O)c1c(N2CCN(Cc3ccccc3)CC2)nc(=S)n(Cc2ccccc2)c1C	-9.1	?	.	-1.1	-6.5	19.7	i	4.3
COc1ccc(C(=O)NCC(c2ccc(F)cc2)N2CCOCC2)cc1S(=O)(=O)N1CCCC1 (stereo unspecified)	4.1	-5.7	-3.6	2.6	2.9	-97.0	i	-8.3
Oc1cccc2ccc[n+](CC(O)Cn3c4ccccc4c4ccccc43)c12 (stereo unspecified)	0.8	3.9	-3.3	9.7	0.7	-64.6	i	3.5
Cc1ccc(-c2cc(C(=O)N/N=C/c3ccc([N+](=O)[O-])o3)c3ccccc3n2)o1	11.9	76.1*	-1.9	-4.2	-13.8	-53.6	i	32.0*	eIF4H inh retest=81.3*;PABP polyA inh retest=88.3*
O=C(O)c1ccc(N/N=C/c2cccc3nccnc23)cc1	2.9	5.6	-19.2	-26.5	-5.5	14.0	.	14.3
COCCn1c(C)cc(C(=O)COC(=O)c2ccc(N3CCCC3=O)cc2)c1C	5.7	2.5	.	3.9	5.3	46.0	i	10.9
CCCCN(C(=O)c1cnccn1)c1c(N)n(CCC)c(=O)[nH]c1=O	-2.6	.	-5.0	-7.7	5.1	8.2	.	.
COc1ccccc1-c1cc(C(=O)Nc2cc(C)nn2-c2ccccc2)no1	39.6	-8.0	.	-4.3	-12.8	-34.7	i	-1.0
CSc1ccc(/C=N/NC(=O)C[n+]2ccccc2)cc1	-11.4	-7.3	-12.6	1.3	3.1	16.4	i	-1.7

2 neighbouring compounds already listed, for reference:
SMILES	CSC inhib	eIF4H inh	Yeast UUG start	MT1-MMP act inh	MT1-MMP act inh RFP	HIV Env fusion	Rce1 inh	PABP polyA inh	others
COc1ccccc1-c1cc(C(=O)Nc2cc(C)nn2-c2ccccc2)no1	39.6	-8.0	.	-4.3	-12.8	-34.7	i	-1.0
CSc1ccc(/C=N/NC(=O)C[n+]2ccccc2)cc1	-11.4	-7.3	-12.6	1.3	3.1	16.4	i	-1.7

(list continues)
SMILES	CSC inhib	eIF4H inh	Yeast UUG start	MT1-MMP act inh	MT1-MMP act inh RFP	HIV Env fusion	Rce1 inh	PABP polyA inh	others
Cc1cc(=O)oc2cc3c(cc12)OCCO3	-19.6	-6.8	.	0.2	6.3	-156.1	i	1.3
Cc1nc(C(=O)Nc2ccc(Cl)cc2)sc1C1(C)CC(c2ccccc2)=NO1 (stereo unspecified)	17.7	-7.3	-8.4	-2.3	-16.4	?	i	-1.5
CC12COC3(P(=O)(c4ccccc4)c4ccccc4)CC1CCC23CP(=O)(c1ccccc1)c1ccccc1 (stereo unspecified)	-2.6	5.3	.	-10.8	-8.4	-17.7	i	18.9
Cc1nn2c(C)c(C(=O)Nc3ccccc3)cnc2c1-c1ccccc1	27.2	-12.6	-3.4	1.0	-1.1	-5.5	i	-4.0
CCn1c(SCC(=O)N2c3ccccc3CCc3ccccc32)nnc1-c1ccc(OC)cc1	-23.5	-1.0	-5.6	2.1	-2.9	-8.2	i	15.6
CCOCCCNC(=O)CCC(=O)NNc1nc2ccccc2c2nc(C)nn12	19.1	-4.2	3.5	-1.9	1.3	-30.1	i	-6.1
CC1Cc2ccccc2N1C(=O)Cn1cnc2ccccc2c1=O (stereo unspecified)	-4.0	9.2	29.9	0.6	-2.9	.	i	7.4
COc1ccccc1CN(C)C(=O)c1cc(-c2cc(OC)c(OC)c(OC)c2)nc2ccccc12	7.9	-5.0	-15.6	-3.4	-8.3	23.5	i	11.1
CNC[C@H]1Oc2c(NS(=O)(=O)c3ccccc3)cccc2C(=O)N([C@H](C)CO)C[C@@H]1C	.	.	-0.2&-25.8	2.7	2.7	9.3	.	.
COc1ccc(OC)c(N/C(=N/C(=S)Nc2ccccc2)Nc2nc(C)cc(C)n2)c1	8.3	-2.5	-12.1	4.8	-2.9	5.9	i	-1.4
Cc1ccc([N+](=O)[O-])cc1NC(=S)NCCc1ccccc1	-8.2	85.5	-25.2	2.6	-1.9	17.1	i	8.2	eIF4H inh retest=-7.6;PABP polyA inh retest=11.3
Cc1ccc(-c2nnc(SCC(=O)Nc3cccc(C(=O)N4CCOCC4)c3)n2C)cc1	2.4	-7.5	.	0.5	0.0	-2.3	i	-6.5
CC(CC(=O)N1CCN(c2ccccc2)CC1)c1ccccc1 (stereo unspecified)	-7.9	-7.1	.	1.4	4.9	-17.6	i	11.3
O=C(OCc1ccc2c(c1)OCO2)c1ccc(S(=O)(=O)N2CCCCC2)cc1	-1.1	-6.2	.	2.6	4.1	.	i	-4.9
Cc1cc(C(F)(F)F)n(-c2nc(C(=O)NNS(=O)(=O)c3ccccc3[N+](=O)[O-])cs2)n1	-11.9	-8.5	.	0.8	2.2	-1.6	i	10.5
CN1CCN(C(=O)C2=C[C@@H](c3ccc(C(F)(F)F)cc3)C[C@@H](OCc3ccc(CO)cc3)O2)CC1	-22.9	-3.7	-2.4&-3.3	-0.3	0.3	14.2[16.7 µM]	i	-0.2
COc1ccc(NC(=O)Cn2c(=O)n(-c3ccc(OC)cc3OC)c(=O)c3c(C)c(C)sc32)cc1	-11.4	-10.9	.	-3.3	-3.4	-1.1	i	12.8
CC(C)=CC(=O)OCc1csc(CC(=O)Nc2ccccc2C)n1	-1.6	3.0	-11.0	-5.9	0.4	-0.5	i	-5.6
Cc1ccc(S(=O)(=O)c2nnn3c2nc(N2CCC(C(N)=O)CC2)c2ccccc23)cc1C	8.5	-3.5	-8.2	-5.0	1.2	6.0	i	-0.4
Cc1ccc(C(=O)N/C(=C/c2ccco2)C(=O)N2CCCCCC2)cc1	-5.4	-7.1	6.9	-4.3	1.8	7.1	i	5.9
COCCn1c(C)nc2oc3ccc(Br)cc3c(=O)c2c1=O	-6.6	8.0	-4.6	-1.5	7.9	-45.3	i	10.0
Nn1cnnc1N/N=C/c1ccc(F)cc1	-11.0	-11.8	-23.7	1.4	5.2	3.0	i	10.8
CC(C)CCN1CCN(Cc2ccsc2)CC1CCO (stereo unspecified)	-8.4	-10.6	.	1.5	7.3	-3.5	i	-10.2
COc1ccc(/C=N/NC(=O)c2ccncc2)cc1CSc1nc2ccccc2s1	10.4	2.5	-3.0	-3.3	-7.8	16.0	i	4.9
CCCSc1ccc([C@@H]2[C@H]3C(=O)N(CC)C(=O)[C@H]3[C@]3(C(=O)OC)CCCN23)cc1	12.6	.	-19.8	-3.8	-3.4	18.3	.	.
Cc1cccc(C)c1OCC(O)Cn1c2ccccc2c2ccccc21 (stereo unspecified)	45.6	-2.9	-13.9	-11.4	-4.4	57.1*	i	-4.0
O=C(COC(=O)CCCSc1nc2ccccc2[nH]1)Nc1ccc(Cl)cc1	3.6	-11.7	-14.0	2.2	-0.9	-8.9	i	-11.4
O=C(c1cccc(Oc2ccccc2)c1)N1CCN(c2ccccn2)CC1	17.4	-0.1	-3.2	1.6	0.7	6.2	i	2.1
CC(C)c1ccc(N=C2NN=C(c3cccs3)CS2)cc1	20.4	9.4	.	-4.4	-7.1	-54.6	i	-3.9
COc1cccc(CNC(=O)CCC2CCCN(C3CCOCC3)C2)c1 (stereo unspecified)	-0.9	3.0	.	-0.7	5.8	.	i	-3.2
CCOc1cc(/C=N/NC(=O)c2ccncc2)ccc1OC(=O)c1ccco1	-17.0	9.2	-17.8	-3.5	0.2	-4.0	i	10.7
CC(C)CC(c1nnnn1CC1CCCO1)N1CCN(c2cccc(Cl)c2)CC1 (stereo unspecified)	64.8	0.0	-16.6	-6.8	-10.7	.	i	-0.1
O=C(C1CCN(S(=O)(=O)N2CCOCC2)CC1)N1CCN(c2ccccc2F)CC1	-4.9	3.4	.	-2.7	-5.6	-10.6	i	6.9
COc1ccccc1S(=O)(=O)Cc1ccc(C(=O)NCc2ccccc2)o1	-10.6	-12.5	.	-1.1	-0.1	8.6	i	-0.2
CS(=O)(=O)N(C(=O)NC(=O)NC12CC3CC(CC(C3)C1)C2)C1CCCCC1	6.5	-5.4	.	-2.3	-2.0	-6.5	i	6.3
CCOc1cc(C(=O)NC(C)CC)cc(OCC)c1OCC (stereo unspecified)	-1.7	-6.4	4.1	2.3	5.5	.	i	2.7
CC(=O)Nc1ccc(S(=O)(=O)NCC(=O)OCC(=O)Nc2sccc2C(N)=O)cc1	-0.6	.	-12.1	0.0	0.2	.	.	.
COc1ccc(NC(=O)CSCC(=O)N(C)CC(=O)Nc2c(C)cccc2C)cc1	-0.8	.	-14.4	1.5	1.6	.	.	.
CC1CCN(c2ccc(-c3ccc(NC(=O)C(F)(F)F)cc3)nn2)CC1	47.1	3.1	-17.5	9.1	1.8	.	i	3.9
C=CCc1ccc(OCc2ccc(C(=O)O)o2)c(OC)c1	-1.4	-10.2	.	3.8	3.5	-12.3	i	12.5
C=CCOC(=O)C1=C[C@@H](c2ccc(Br)cc2)C[C@@H](OCCCCO)O1	.	.	7.8	-2.1	-0.1	-18.0	i	.
O=C(c1cccn(Cc2ccc(Cl)c(Cl)c2)c1=O)N1CCOCC1	1.3	-0.5	10.5	0.4	0.5	-21.1	i	2.6

The list is partial (hit frequency here may not be typical).
